KCNQ2 pot: potentiators of rat KCNQ2 potassium channel. B-score at 10 µM. Potassium voltage-gated channel subfamily KQT member 2 (Rattus norvegicus), O88943. CHO-K1 KCNQ2, FluxOR thallium flux fluorescence; hits give high values. 310,000 compounds, 0.54% hits;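 active = fluorescence ratio B-score at least 3 SD of library B-scores, with initial fluorescence B-score within 3 SD, cut at about 5.3 in these data; same plate scores as AID 2156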;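 note: B-score of peak minus minimum over baseline fluorescence ratio after K+ and Tl+ stimulus; positive B-score means potentiation of KCNQ2 with more thallium influx and brighter signal; only the inactives scoring about 0 or higher are listed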
Target sequence (O88943 whole entry, looked up): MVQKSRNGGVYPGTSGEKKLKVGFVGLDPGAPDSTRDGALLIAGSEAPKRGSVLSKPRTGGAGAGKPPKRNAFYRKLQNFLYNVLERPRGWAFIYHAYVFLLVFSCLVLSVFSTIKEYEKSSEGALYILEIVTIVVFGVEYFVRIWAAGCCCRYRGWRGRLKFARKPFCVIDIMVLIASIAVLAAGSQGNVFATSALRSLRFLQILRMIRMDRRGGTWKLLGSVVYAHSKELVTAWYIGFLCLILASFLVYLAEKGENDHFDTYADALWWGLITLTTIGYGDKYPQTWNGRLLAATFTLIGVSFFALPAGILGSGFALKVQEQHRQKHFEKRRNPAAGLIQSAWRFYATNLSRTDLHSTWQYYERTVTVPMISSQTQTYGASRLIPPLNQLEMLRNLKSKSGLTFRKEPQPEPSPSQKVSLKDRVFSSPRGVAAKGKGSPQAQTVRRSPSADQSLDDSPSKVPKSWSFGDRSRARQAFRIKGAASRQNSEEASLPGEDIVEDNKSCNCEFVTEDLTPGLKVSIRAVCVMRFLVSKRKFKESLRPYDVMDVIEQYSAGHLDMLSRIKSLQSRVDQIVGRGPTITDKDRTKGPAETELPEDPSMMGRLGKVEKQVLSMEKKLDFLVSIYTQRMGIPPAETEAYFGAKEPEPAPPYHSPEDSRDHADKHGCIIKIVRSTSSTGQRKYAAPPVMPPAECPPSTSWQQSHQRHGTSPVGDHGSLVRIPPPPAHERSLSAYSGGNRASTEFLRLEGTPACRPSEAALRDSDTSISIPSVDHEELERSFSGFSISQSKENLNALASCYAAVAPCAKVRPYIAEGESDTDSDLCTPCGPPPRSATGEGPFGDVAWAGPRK
KCNQ2 pot baseline: further read-out of KCNQ2 pot, marked with its call; B-score; compound at 10 µM; measured here: initial fluorescence intensity artifact check;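 brightness before thallium and not channel activity; 0 = typical well and far values either way flag optical interference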
Starred values were filed as active, the others as inactive.

SMILES | KCNQ2 pot | KCNQ2 pot baseline
COc1ccc(CN2CC(C(=O)NCCC(C)C)CC2=O)cc1 (stereo not given) | 0.94 | 1.3
C=C(C)Cn1c(SCCN2CCOCC2)nc2c1c(=O)[nH]c(=O)n2C | 2.4 | -0.28
CCCn1nnc(NC(=O)c2ccc(Br)o2)n1 | 0.82 | 0.04
O=C(NC1CCCCC1)C1CCN(c2cnccn2)CC1 | 0.77 | 0.04
CSc1nc(O)c(C(c2ccc(F)cc2)c2c(O)nc(SC)[nH]c2=O)c(=O)[nH]1 | 0.49 | 0.49
Cn1c(=O)n(-c2ccc(Cl)cc2)c(=O)c2c3c(sc21)COC(C)(C)C3 | 0.48 | -0.39
O=C(O)c1cc(Nc2cc(Cl)c3nonc3c2[N+](=O)[O-])ccc1O | 0.02 | -1.3
CCOC(=O)CSc1nnc(-c2ccc(OC)cc2)n1CC | 1.2 | -1.3
Cc1ccc(CN2CCN(Cc3ccncc3)CC2CCO)o1 (stereo not given) | 0.01 | 2.3
CC(C)(C)c1ccc(C(=O)OCCN2CCCCC2)cc1 | 1.6 | 0.46
CCc1cc2c(N3CCCCC3)ncnc2s1 | 0.71 | -0.04
COc1ccc(C(=O)O/N=C(\N)c2ccc(Cl)cc2)cc1 | 0.17 | -1.1
COc1ccccc1NC(=O)N1CCN(C(=O)c2ccco2)CC1 | 1.6 | 0.22
COc1ccc2cc(C(C)C(=O)Nc3cccc(S(=O)(=O)N(C)C)c3)ccc2c1 (stereo not given) | 1.1 | 0.7
CS(=O)(=O)Oc1ccc(Br)c2cccnc12 | 1.1 | 0.19
CCCNC(=O)NC(=O)CSc1nncs1 | 1.5 | -1.1
CC12CCC(C(=O)NC3CCCC3)(CC1=O)C2(C)C (stereo not given) | 0.06 | 0.79
Cc1ccc(C(=O)COC(=O)c2c(C)cc(=O)oc2C)cc1[N+](=O)[O-] | 1.7 | -1.7
COc1ccc(OC)c(-c2csc3nnc(SCC(=O)Nc4ccc(NC(C)=O)cc4)n23)c1 | 0.73 | -1.2
COc1ccc(OCCC(=O)OCC(=O)NC(=O)NC(C)C)cc1 | 1.9 | 1.9
O=C(O)c1ccc(-n2nc(C(F)(F)F)cc2-c2cccs2)cc1 | 0.13 | 0.18
COc1ccccc1C(=O)Nc1nnn(C)n1 | 0.59 | -0.97
Cc1cc(Cl)ccc1C(=O)C1CCCN(C(=O)c2cnn(C(C)C)c2)C1 (stereo not given) | 1.8 | -0.38
COC(=O)c1ccc(NC(=O)CCc2nnc3ccc(NCc4ccco4)nn23)cc1 | 0.02 | 1.1
COc1cccc(/C=C2\SC(=O)N(CC(=O)NC3C=CS(=O)(=O)C3)C2=O)c1 (stereo not given) | 1 | 0
COc1cc(C2NC(=O)C(C#N)=C(S)N2c2ccccc2)ccc1OC(C)C (stereo not given) | 0.31 | 0.67
O=C(CSc1ncnc2c1cnn2-c1ccccc1)NC1CCCC1 | 0.22 | 0.04
CN(C)CCCCNCCCNC(=O)/C=N\O | 0.1 | 0.36
CCCC12CN3CCN(CC(C3)/C1=N\NC(=O)c1ccc(C(C)(C)C)cc1)C2 | 2.7 | 0.58
CCN1C(=NCc2ccco2)N[C@@H](c2cccc(F)c2)C(C(=O)OC)=C1C | 1.2 | 0.03
C=CCn1c(-c2c[nH]c3ccccc23)n[nH]c1=S | 0.77 | 1.1
CCOc1ccc2[nH]c(=O)c(CN(CCc3ccccc3)C(=O)N3CCCC3)cc2c1 | 1.8 | 0.04
CCc1ccccc1OCCCCN1CCCC1 | 1.5 | -0.19
O=C1c2ccc(Oc3ccc([N+](=O)[O-])cc3)cc2C(=O)N1CCCO | 0.33 | 1.6
COc1ccc(N2C(=O)/C(=C3/C=CC=CN3C)SC2=S)cc1 | 1.4 | -1.2
CC(NS(=O)(=O)c1ccc(Br)cc1)C(=O)NCCc1ccccc1 (stereo not given) | 0.8 | -0.92
COc1ccccc1CNC(=O)CCCNS(=O)(=O)c1cccc2nsnc12 | 1.3 | 0.18
Cc1ccccc1-n1nc(-c2ccc(N)cc2)cc1N | 0.12 | 1.3
O=C(CSC1=NCCS1)N1CCCC1 | 1.2 | 0.3
COc1ccc(CCNC(=O)c2oc3ccc(S(=O)(=O)N4CCOCC4)cc3c2C)cc1OC | 1.5 | -1.5
Cc1ccc(-c2ccc(=O)n(CC(=O)NCCN3C(C)CCCC3C)n2)cc1 (stereo not given) | 1.6 | -0.19
CC(=O)OC12CC3CC(C1)C(=NO)C(C3)C2 | 0.6 | -1.6
CCOC(=O)N1CCC(n2c(SCC(=O)c3ccccc3)nc3ccsc3c2=O)CC1 | 0.24 | 0.22
COC(=O)c1cc(C(=O)Nn2cnnc2)cc([N+](=O)[O-])c1 | 1.7 | 0.36
COc1ccc(S(=O)(=O)CCC(=O)Nc2cccc(OC)c2)cc1 | 0.39 | 0.78
N=c1n(CCCOc2ccc(F)cc2)c2ccccc2n1CC(N)=O | 0.19 | -0.46
COc1ccc(OCC(=O)Nc2sc3c(c2C(=O)NCC2CCCO2)CCC3)cc1 (stereo not given) | 1.1 | -0.67
CC(Cc1c[nH]c2ccccc12)NC(=O)OCCCl (stereo not given) | 0.17 | 1.3
CCOC(=O)[C@H](CCc1ccccc1)N[C@@H](C)C(=O)N1[C@H](C(=O)O)C[C@@H]2CCC[C@@H]21 | 0.19 | -0.22
COc1ccc(-c2csc(NC(=O)c3ccccc3Br)c2C(=O)O)cc1 | 1.8 | -1.3
Cc1cc(N(CCO)CCO)ccc1N=Nc1cc(F)ccc1F | 0.1 | -2.1
Cc1cccc(/N=C/c2sc3ccccc3c2O)n1 | 0.23 | 0.1
COc1ccc(/C=C/C=N/NC(=O)COc2ccc(OC)cc2)cc1 | 0.28 | 1.3
CCOC(=O)C1=C(N)OC2=C(C(=O)CCC2)C1c1ccco1 (stereo not given) | 0.92 | 0.45
CC(C)(C)S(=O)(=O)/C(C#N)=N/Nc1ccc(S(C)(=O)=O)cc1 | 0.91 | 0.54
CCc1ccc(NC(=O)Cn2nc(C)n3cccc3c2=O)cc1 | 0.21 | 1.6
CCC(C)CNC(=O)c1cccc(OC2CCN(CC(C)(C)C)CC2)c1 (stereo not given) | 0.26 | -0.58
Oc1c(CN2CCN(c3ccccc3)CC2)cc(Br)c2cccnc12 | 0.22 | -0.77
O=S(=O)(c1ccc(Cl)cc1)n1cnc2ccccc21 | 0.52 | -0.18
Cc1ccc(-c2cc(C(=O)Nc3c(C)n(C)n(-c4ccccc4)c3=O)[nH]n2)c(O)c1 | 0.51 | 0.04
Later entries.
SMILES | KCNQ2 pot | KCNQ2 pot baseline
CCC(CC)c1nnc(NC(=O)c2nc3nc(C)cc(C)n3n2)s1 | 0.08 | 1.2
COc1ccc(NC(=O)COc2cccnc2[N+](=O)[O-])cc1OC | 0.09 | -0.73
COc1ccc(NCc2nnc(SCC(=O)c3ccc(OC)cc3)o2)cc1 | 0.8 | -0.97
COc1ccc2[nH]c(=O)c(CNC3CCCCC3)cc2c1 | 0.09 | 0.47
COc1ccc(CN2c3cc(S(=O)(=O)N4CCOCC4)ccc3N3CCCC32)cc1 (stereo not given) | 0.05 | -0.86
O=C(CN(C(=O)c1csnn1)c1cccc(Cl)c1)NCCc1ccccc1 | 1 | -0.22
NS(=O)(=O)c1ccc(CCNC(=O)CSc2nc3ccccc3c3nc(CCN4CCCCC4)nn23)cc1 | 1.3 | -0.07
Cc1nc(C)c(C(=O)Nc2nc3c(C)cccc3s2)o1 | 1.7 | 1.6
Oc1ccccc1N=Nc1ccccc1O | 7.9* | -0.58*
Cc1ccc(S(=O)(=O)Nc2ccccn2)cc1[N+](=O)[O-] | 0.25 | -1.9
COc1cccc(/C=N/N2C(=O)NC3(CCCCC3)C2=O)c1O | 0.93 | -1.4
CCOc1ccc(-n2c(SCC(=O)Nc3cc(OC)c([N+](=O)[O-])cc3C)nc3ccccc32)cc1 | 0.03 | -0.1
O=C(Cc1ncn[nH]1)NCCc1ccccc1 | 3.6 | -1.5
NC(=O)c1cc(Br)cc2c3c([nH]c12)CCCC3 | 2.2 | -0.33
COc1cccc(/C=C2/C(=O)NN(c3ccccc3)C2=O)c1 | 1.8 | 0.59
Cc1[nH]nc(S(=O)CC(=O)O)c1[N+](=O)[O-] (stereo not given) | 0.64 | 1.1
CCCSC1=C(C#N)C(c2ccccc2C)C(C(=O)OC)C(=O)N1 (stereo not given) | 1.1 | 0.02
COc1ccc(NC(=O)ON=C2c3ccccc3-c3ccccc32)cc1 | 0.02 | 0.21
N#CCc1ccc(NS(=O)(=O)c2ccc(N3CCCC3=O)cc2)cc1 | 0.05 | -0.13
Cc1cc(C)c2nc(NC(=O)c3ccc4c(c3)OCO4)sc2c1 | 0.64 | -0.72

One compound at a time, as listed above:
CCC(CC)c1nnc(NC(=O)c2nc3nc(C)cc(C)n3n2)s1 is listed as KCNQ2 pot: 0.08; KCNQ2 pot baseline: 1.2
CCCSC1=C(C#N)C(c2ccccc2C)C(C(=O)OC)C(=O)N1 (stereo not given) is listed as KCNQ2 pot: 1.1; KCNQ2 pot baseline: 0.02

Further results
SMILES | KCNQ2 pot | KCNQ2 pot baseline
CC(C)C(NC(=O)C12CC3CC(CC(C3)C1)C2)C(=O)NC1=NCCS1 (stereo not given) | 0.36 | -1.9
Cc1ccc(OCCCNCCO)c(Br)c1 | 0.36 | -2.5
CCOc1ccc(C2CC(c3cccc(OC)c3)Nc3nc(N)nn32)cc1 (stereo not given) | 0.04 | -0.62
Cc1ccc([N+](=O)[O-])cc1NC(=O)CN(C)CCOc1ccccc1 | 0.55 | 0.02
Cc1ccc(C(=O)Nc2ccon2)cc1S(=O)(=O)N1CCOCC1 | 0.02 | -1.5
O=C(CCSc1ccc(Cl)cc1)NCc1ccccn1 | 0.13 | 0.03
CC1CC(C)CN(C(=O)CSc2nc(N)cc(=O)[nH]2)C1 (stereo not given) | 1.3 | -1.8
CCN(CC)c1ccc2cc(C#N)c(=O)oc2c1 | 0.79 | 0.01
CCCc1[nH]n(-c2ccc([N+](=O)[O-])cc2)c(=O)c1C(C)=NCc1ccncc1 | 1.1 | 1.6
O=C(CN1C(=O)NC2(CCc3ccccc32)C1=O)c1ccc(F)cc1 (stereo not given) | 0.76 | -2.2
CCCCOc1ccc(C(=O)N2CCN(c3ccc(N4CCOCC4)nn3)CC2)cc1 | 0.53 | -1.1
COc1ccc(Cl)cc1S(=O)(=O)NC1CC(C)(C)NC(C)(C)C1 | 0.7 | 4.5
C/C(=N\NC(=S)NC(C)C)c1cccc([N+](=O)[O-])c1 | 0.6 | 0.82
CCOC(=O)c1cc(-c2ccccc2)n(CC(=O)N2CCCC2)c1C | 1.1 | -0.56
COc1ccc(-n2c(SCC(=O)Nc3cc(C(=O)O)ccc3C)nc3ccccc3c2=O)cc1Cl | 0.23 | -0.02
COC(=O)c1ccccc1NC(=O)Nc1nnc(N2CCCCC2C)s1 (stereo not given) | 0.11 | -0.21
O=C(Nc1cccnc1)Nc1ccc(Br)cc1Cl | 0.04 | 0.3
Cc1ccc(-n2cc(CCCCCCCCC(=O)O)nn2)cc1 | 0.14 | 1.5
COCc1cc(C)nc2sc3c(=O)n(-c4cccc5ccccc45)nnc3c12 | 0.16 | 0.57
NC(=S)N/N=C1\CCSc2ccc(Cl)cc21 | 0.9 | 1.9
C=CCn1c(-c2cccn(Cc3cccc(Cl)c3)c2=O)n[nH]c1=S | 0.02 | 1.5
CCCc1cc(=O)[nH]c(SCC(=O)Nc2ccc(Br)cc2Br)n1 | 0.99 | 0.53
CC(C)Cn1nc(NC(=O)C(C)(C)C)c2cc3ccccc3nc21 | 0.01 | 0.84
CCCc1cc(=O)n2[nH]c(-c3cccc(Br)c3)cc2n1 | 1.4 | 3.3
O=C1CSC(c2cccc([N+](=O)[O-])c2)N1c1ccccc1 (stereo not given) | 1.2 | -1.4
Cn1c(SCC(=O)NC2CCCCCC2)nnc1-c1cccs1 | 1.6 | 0.62
O=C(O)c1ncc(-c2ccccc2)cn1 | 0.71 | -0.65
O=C(Nc1ccc2c(c1)CN(Cc1ccc(CO)o1)CC2)c1ccc(C(F)(F)F)cc1 | 0.53 | 0.59
O=C1CC(=O)Nc2cc(S(=O)(=O)NCc3cccs3)ccc2N1 | 0.06 | 0.99
O=C(CCC1CCCCC1)Nc1cccnc1 | 2.7 | -1.2
CCOc1ccc(NC(=O)CCCNC(=O)Cn2cnc3sc(C)c(C)c3c2=O)cc1 | 1.9 | 1.2
Cc1cc(C)n(CCC(=O)N/N=C/c2ccccc2O)n1 | 0.29 | -0.12
CNC(=S)N/N=C/c1cn(CCOc2cccc(OC)c2)c2ccccc12 | 0.75 | -0.69
CSC(=NS(=O)(=O)c1ccc(C)cc1)SC | 0.6 | 0.28

Gathered by group, the compounds so far containing a Cl atom (13)
SMILES | KCNQ2 pot | KCNQ2 pot baseline
Cn1c(=O)n(-c2ccc(Cl)cc2)c(=O)c2c3c(sc21)COC(C)(C)C3 | 0.48 | -0.39
O=C(O)c1cc(Nc2cc(Cl)c3nonc3c2[N+](=O)[O-])ccc1O | 0.02 | -1.3
COc1ccc(C(=O)O/N=C(\N)c2ccc(Cl)cc2)cc1 | 0.17 | -1.1
Cc1cc(Cl)ccc1C(=O)C1CCCN(C(=O)c2cnn(C(C)C)c2)C1 (stereo not given) | 1.8 | -0.38
CC(Cc1c[nH]c2ccccc12)NC(=O)OCCCl (stereo not given) | 0.17 | 1.3
O=S(=O)(c1ccc(Cl)cc1)n1cnc2ccccc21 | 0.52 | -0.18
O=C(CN(C(=O)c1csnn1)c1cccc(Cl)c1)NCCc1ccccc1 | 1 | -0.22
O=C(CCSc1ccc(Cl)cc1)NCc1ccccn1 | 0.13 | 0.03
COc1ccc(Cl)cc1S(=O)(=O)NC1CC(C)(C)NC(C)(C)C1 | 0.7 | 4.5
COc1ccc(-n2c(SCC(=O)Nc3cc(C(=O)O)ccc3C)nc3ccccc3c2=O)cc1Cl | 0.23 | -0.02
O=C(Nc1cccnc1)Nc1ccc(Br)cc1Cl | 0.04 | 0.3
NC(=S)N/N=C1\CCSc2ccc(Cl)cc21 | 0.9 | 1.9
C=CCn1c(-c2cccn(Cc3cccc(Cl)c3)c2=O)n[nH]c1=S | 0.02 | 1.5

Only part of the results is shown, so the mix of outcomes need not match the whole.
